Screening data: PubChem, PCMD
Calb biofilm kill: mixtures killing C. albicans biofilm; actives 0.02% (n = 120,000); C. albicans biofilm persisters + clotrimazole, fluorescence viability; primary screen in compound mixtures of four per well; AID 1242; inhibition, % at 7.6 µM;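 active = inhibition above 30.3% in the primary screen of four-compound pools, then above 30% when the compound was retested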;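 also: compounds exposed to preformed 24 h biofilms for 48 h; the number belongs to the whole pool; some results filed as inactive read as strong as hits; inactives centre near 12; 0% = biofilm with clotrimazole alone and 100% = kill control; retested singly at about 60 µM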
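Probe or stimulus – Clotrimazole 50 µg/mL co-treatment · System – C. albicans biofilms · Schedule – 24 h biofilm formation, then 48 h compound exposure, 37 °C · Evaluation – percent inhibition of biofilm viability · Technique – 2-h Alamar Blue fluorescence, 535/590 nm excitation/emission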
Active calls of the source: *. This is a subset (hit frequency here may not be typical).

canonical_smiles | Calb biofilm kill
CCN=C(NC#N)SCc1c(F)cccc1Cl | 9.2
CNC(=S)NC(CC(=O)OC)c1ccc2c(c1)OCO2 (stereo unspecified) | -7.3
O=C(O)CN(c1cccc(C(F)(F)F)c1)S(=O)(=O)c1ccccc1 | 6.0
COc1cc2c(cc1OC)CN(Cc1cc(=O)oc3cc(C)c(Cl)cc13)CC2 | 12.1
COc1ccccc1C(=O)N(CCN(C)C)c1nc2cc(C)cc(C)c2s1 | 21.1
NS(=O)(=O)c1ccc(Sc2nc3ccccc3s2)c([N+](=O)[O-])c1 | 24.5
COc1ccc2nc(SCCOC(=O)Nc3ccc(Cl)cc3)nc(C)c2c1 | 14.6
Cn1ccnc1C(=O)c1cc(SCC(=O)NC2CC2)nc2ccccc12 | 18.2
CSc1nc(-c2ccccc2)nn1C(=O)c1ccco1 | 7.9
O=C(CN1CCN(C/C=C/c2ccccc2)CC1)Nc1cc([N+](=O)[O-])ccc1Cl | 10.5
Cc1ccc(C)c(-n2c3nc(=O)[nH]c(=O)c-3cc3cc([N+](=O)[O-])ccc32)c1 | 13.9
Cc1ccc([N+](=O)[O-])c(OCCn2cnc3ccccc32)c1 | 18.0
COc1ccc(NC(=O)CN2CCN(c3ccccc3Cl)CC2)cc1 | 13.9
CCCn1nc(NC(=O)c2ccco2)c2cc3cc(C)ccc3nc21 | 16.1
O=C(/C=C/Nc1cccc(C(F)(F)F)c1)c1ccco1 | 14.5
COc1cc(C(=O)c2nccc3cc(OC)c(OC)cc23)c([N+](=O)[O-])cc1OC | 0.8
CN(C)/C=C/C(=O)c1ccc(F)cc1F | 19.5
CCOCCCNC(=O)c1ccc(Cn2c(=S)[nH]c3c([nH]c4ccc(OC)cc43)c2=O)cc1 | 19.9
O=C(Nn1cnc2ccccc2c1=O)c1cccc(Cl)c1 | 5.4
CNC(=O)Nc1cc(NC(=O)NC)cc(C(F)(F)F)c1 | 12.8
NC(=O)Cn1c(=O)n(C2CCCCC2)c(=O)c2c3c(sc21)CCCCC3 | 12.9
CC(C)(C)NC(=O)CSc1nnc(NC(=O)c2ccccc2Cl)s1 | 17.0
COc1ccccc1/C=C(/C(=O)OCC(=O)N(C)Cc1ccccc1)c1ccccc1 | 7.9
O=C(CSC1=NC2(CCCCC2)N=C1c1ccccc1)Nc1ccc2c(c1)OCCO2 | 11.7
COC(=O)Nc1ccc(S(=O)(=O)NC2CCS(=O)(=O)C2)cc1 (stereo unspecified) | 8.4
COCCn1c(C)cc(/C=C2/NC(=O)N(Cc3ccc(C)cc3)C2=O)c1C | 19.2
CCN(CC)C(=O)CC(c1ccc(N(C)C)cc1)c1c(OC)cc(OC)c2ccc(=O)oc12 (stereo unspecified) | 24.3
CCCCNS(=O)(=O)c1ccc(NC(=O)c2cccs2)cc1 | 17.8
O=C(CSc1nnc(-c2cccnc2)o1)NNC(=O)c1ccc(Br)cc1 | 18.3
Cc1ccccc1-c1nnc(NC(=O)c2ccc(N3C(=O)CCC3=O)cc2)s1 | -3.1
Cn1c(N)c(C(=O)COC(=O)CSc2cccc3cccc(Cl)c23)c(=O)n(C)c1=O | 14.7
CCOC(=O)c1c(NC(=O)c2ccccc2)sc2c1CCc1ccccc1-2 | 11.9
Cc1cc(Nc2cccc(C)c2C)n2nc(C)nc2n1 | 12.8
O=C1NC(=S)N(C(=O)c2ccc(F)cc2)/C1=C/c1ccccc1 | -6.7
COc1ccc(CCNC(=O)c2cccc(S(=O)(=O)N3CCCCC3)c2)cc1 | 6.4
COc1ccc(-c2noc(C3CCCN(C(=O)Nc4ccccc4F)C3)n2)cc1 (stereo unspecified) | 3.2
O=c1c(=O)n2c(nn1Cc1ccc(F)cc1)sc1ccccc12 | 4.7
Cc1cc(N2C(=O)NC(=O)CC2C)c(C)cc1C(C)C (stereo unspecified) | 4.5
COc1ccc2cc3c(N)nn(C(=O)c4ccc(Cl)c([N+](=O)[O-])c4)c3nc2c1 | 8.6
COc1ccc2oc(=O)c(-c3ccccc3C(=O)N3CCOCC3)cc2c1 | 14.8
Cc1cc(C)c(-c2csc(NC(=O)c3n[nH]c(=O)c4ccccc34)n2)c(C)c1 | 13.2
Cc1ccc(C23CC4CC(CC(CN)(C4)C2)C3)cc1 | 15.9
CC(C)c1ccc(/C=N/Nc2cc(N3CCOCC3)nc(N3CCOCC3)n2)cc1 | 8.7
NC(=O)c1cc([N+](=O)[O-])cc2c1C=Cc1ccccc1O2 | 14.7
CC(C)N(C)NC(=S)Nc1ccccc1 | 15.1
C(=N\Nc1nc2ccccc2[nH]1)/c1cccc2nccnc12 | 24.2
Cc1nn2cc(-c3ccc(Cl)cc3)cnc2c1Br | 10.4
CCN1CCN(C(=S)NC(=O)/C=C/c2cccs2)CC1 | 11.5
COc1ccc(C(C(=O)NC2CCCC2)N(C(=O)c2ccco2)c2ccc(OC)c(OC)c2)cc1 (stereo unspecified) | 15.8
C=C(C)C1CC=C(C)/C(=N/NC(=O)COc2cccc(C)c2)C1 (stereo unspecified) | 4.6
O=C(Nc1ccccc1)Nc1sccc1-c1nc2ccccc2s1 | 14.7
O=C(NCCNC(=O)c1ccco1)c1ccc(F)cc1 | 12.4
CCCCOC(=O)c1cc(Cl)c(O)c(OC)c1 | 18.5
CCOc1cccc(C(=O)NCc2ccccc2)c1 | 2.5
O=C(c1ccccc1)N(Cc1cccnc1)C1(C(=O)Nc2ccccc2)CCCCC1 | 4.5
FC(F)(F)c1ccccc1NC(=S)N1CCN(c2ccccn2)CC1 | -5.6
Fc1ccc(CNC(=S)Nc2cccc(C(F)(F)F)c2)cc1 | 7.2
C#CCSc1nnnn1-c1cccc(Cl)c1 | 18.1
CCC(=O)Oc1ccc(C(=O)Nc2cccc(C(=O)NCC(C)C)c2)cc1 | 6.5
COc1cccc(C(=O)/C=C/Nc2ccc(S(=O)(=O)Nc3cnc4ccccc4n3)cc2)c1 | 1.3

Next part
canonical_smiles | Calb biofilm kill
COc1ccccc1CNC(=O)C1CCC(CNc2c(N3CCCCC3)c(=O)c2=O)CC1 (stereo unspecified) | 15.4
CCc1cccc(Nc2c3c(nc4ncnn24)CCC3)c1 | 1.2
COc1cc(/C=N/NC(=S)NC(C)C)ccc1OCC(=O)Nc1c(C)cc(C)cc1C | 10.6
Cc1onc(-c2ccccc2)c1C(=O)Nc1ccc(Cl)cn1 | -5.6
CC1=NNC(=O)C1CCC(=O)N/N=C/C=C/c1ccccc1 (stereo unspecified) | 12.5
Cc1ccc2nc(-c3cccnc3)c(NC3CCCC3)n2c1 | 13.9
Oc1cccc(/C=N/Nc2cc(N3CCOCC3)nc(N3CCOCC3)n2)c1 | 4.8
CC(NCCc1ccc(O)cc1)C(O)c1ccc(O)cc1 (stereo unspecified) | 11.5
COc1cc(C(=O)Oc2cc(C)cc(C)c2)cc(OC)c1OC | 15.1
CCOC(=O)c1c(-c2ccc(C)o2)csc1NC(=O)CN1CCC(C(N)=O)CC1 | -0.9
COc1ccc(-c2nnsc2N2C(=O)c3ccccc3C2=O)cc1 | 23.9
O=C(Oc1cccc(C(=S)N2CCOCC2)c1)c1cc([N+](=O)[O-])cc([N+](=O)[O-])c1 | 19.2
Cn1c(=NC(=O)c2ccccc2[N+](=O)[O-])sc2cccc(F)c21 | 22.3
C=CCc1cccc2cc(C(=O)NC3CCCCC3)c(=O)oc12 | 7.7
CCOc1ccc(-c2c(C(=O)N/N=C/c3ccc(OC)cc3)nnn2-c2nonc2N)cc1 | 7.3
Cc1ccc(S(=O)(=O)NCCc2ccncc2)cc1C | 6.4
CSCCC(NC(=O)C1CCCCC1)c1nc2ccccc2[nH]1 (stereo unspecified) | 11.5
CCC(=Cc1ccc(CC)cn1)CC | 7.9
Cc1ccc(CNC(=O)CCNS(=O)(=O)c2cccs2)cc1 | 12.7
CCc1ccc(NC(=O)c2cnn(-c3ccccc3)c2C)cc1 | 14.0
C=CCOC(=O)/C(=C\c1ccccc1)NC(=O)c1ccco1 | 21.8
Cc1nc(-c2ccc(NC(=O)CC(C)C)cc2)cs1 | -3.6
Cc1nn(-c2ccc(C(=O)O)cc2)c(C)c1Cl | 21.7
O=C(CCC1CCCC1)Nc1nnc(-c2ccc3c(c2)OCO3)s1 | -8.3
Cc1cc(C)n(CC(C)NCc2cn[nH]c2-c2ccc(C)c(C)c2)n1 (stereo unspecified) | 12.0
Cc1ccc(CNC(=O)C2CC(=O)N(C3CCCCCC3)C2)cc1 (stereo unspecified) | -2.2
O=C(O)/C=C/C(=O)Nc1ccc(N2CCOCC2)nc1N1CCOCC1 | 20.6
CC(=O)c1ccc(NC(=O)C(C)Nc2ccc(Cl)cc2)cc1 (stereo unspecified) | 12.0
COc1ccccc1N(CC(=O)NC(C)(C)C)S(=O)(=O)c1cccs1 | -2.9
Cc1nn(-c2cc(N3CCCCC3)ccc2N)c(=O)c2ccccc12 | 9.4
CCOc1ccc2nc(/N=C/c3c(C)[nH]n(-c4ccccc4)c3=O)sc2c1 | 13.2
Oc1ccc(/C=N/Nc2ccnc3cc(Cl)ccc23)c(O)c1 | 14.6
Cc1nc(N2CCN(Cc3ccccc3)CC2)nc2c1CCC2 | 14.1
Cc1nc(Nc2ccc(Cl)cc2)c2nnn(Cc3ccccc3)c2n1 | 10.1
CCOc1ccc(-c2n[nH]c(C(=O)NN)c2C)cc1 | 13.2
O=C1CSC(c2cccc([N+](=O)[O-])c2)N1C1CC2CCC1C2 (stereo unspecified) | 24.9

Among those listed so far, three contain a COOH group:
canonical_smiles | Calb biofilm kill
O=C(O)CN(c1cccc(C(F)(F)F)c1)S(=O)(=O)c1ccccc1 | 6.0
Cc1nn(-c2ccc(C(=O)O)cc2)c(C)c1Cl | 21.7
O=C(O)/C=C/C(=O)Nc1ccc(N2CCOCC2)nc1N1CCOCC1 | 20.6

Later entries:
canonical_smiles | Calb biofilm kill
COc1ccc(S(=O)(=O)NCCOc2cccc3cccnc23)cc1OC | 11.6
O=C(c1cc([N+](=O)[O-])ccc1N1CCCCC1)N1CCCC1 | 9.9
CCNc1nn2ccccc2c1/C=C(\C#N)C(=O)OCC | 8.6
C=CCOc1ccc(CN(C)Cc2nc3cc(C(F)(F)F)ccc3c(=O)[nH]2)cc1 | 7.4
COc1ccc(NC(=O)COc2ncnc3ccccc23)cc1S(=O)(=O)N1CCOCC1 | 19.6
CCOc1ccc(-n2nnc3c(=O)n(CC(=O)Nc4cc(C)on4)cnc32)cc1 | 19.1
Cn1cc(CN(CCO)Cc2cccs2)c(-c2ccccc2F)n1 | 25.0
COC(=O)c1[nH]c2ccccc2c1NC(=O)C(C)N1CCOCC1 (stereo unspecified) | 20.9
Cc1c(C=O)c2ccccn2c1C(=O)c1ccc(Cl)c([N+](=O)[O-])c1 | 18.2
CCOC(=O)CC1C(=O)NCCN1c1nc2ccc(C)cn2c(=O)c1/C=C1\SC(=S)N(C(C)CC)C1=O (stereo unspecified) | 6.9
O=C(CSc1nc2[nH]ncc2c(=O)n1-c1ccc(Cl)c(Cl)c1)NCc1ccccc1Cl | 24.1
COC(=O)c1ccc(C23CC4(C2)[C@H](CN(CC2CCCCC2)[C@@H]4c2ccccc2)C3c2ccc(Cl)nc2)cc1 (stereo partly specified) | 1.1
COc1cc(OC)cc(C(=O)Nn2cc(C(=O)Nc3ccccc3F)c3ccccc3c2=O)c1 | 17.6
CCN(CC)C(=O)Cn1cc(S(=O)(=O)CC(=O)NCc2ccc3c(c2)OCO3)c2ccccc21 | 16.9
COc1cc2c(cc1NC(=O)c1ccccc1F)CCCC2 | -14.6
CS(=O)(=O)N(Cc1ccc(Cl)cc1)c1ccc(C(=O)N/N=C/c2cc3ccccc3nc2Cl)cc1 | 11.6
O=C(Nc1csc([N+](=O)[O-])c1)Nc1c(Cl)cccc1Cl | 27.4
CCOC(=O)CSc1ccc2nnc(CCNS(=O)(=O)c3ccccc3)n2n1 | 16.1
COc1ccc(C)c(-n2c(N)cc(=O)n(Cc3ccccc3)c2=O)c1 | 25.9
C[C@@H](O)C1NC(=O)[C@H](CCCCN)NC(=O)c2cc([N+](=O)[O-])cc(I)c2NCCC[C@@H](C(N)=O)NC1=O (stereo partly specified) | 19.2
Cc1ccccc1N=Cc1cc2c(cc1O)OC(N)=C(C#N)C2c1ccccc1 (stereo unspecified) | 5.0
COc1ccc(OCC(=O)N/N=C2\CCCc3ccccc32)cc1 | 15.0
O=S1(=O)[C@H]2CC3O[C@]2(C[C@@H]3c2ccc(F)cc2)CN1Cc1ccc(Cl)cc1 | 14.9
CC(C)c1nnc(NC(=O)c2ccc3c(c2)OCO3)s1 | 17.3
O=C(O)CCC(=O)NC(c1ccccc1)c1ccccc1 | 5.7
NS(=O)(=O)c1ccc(N2C(=O)C3CC=CCC3C2=O)cc1 (stereo unspecified) | 11.0
CCCNC(=O)COC(=O)/C=C/c1ccc2c(c1)OCO2 | 8.6
CN(C)CCNC(=S)Nc1ccc(-c2nc3ccccc3[nH]2)cc1 | 13.4
CCN(CC)S(=O)(=O)c1cccc(NC(=O)COC(=O)CNC(=O)c2cccc(F)c2)c1 | 18.6
Cn1c(-c2ccc3c(c2)OCO3)cnc1NCc1cccc(O)c1 | 0.5
CN(C)CCCOc1cccc(Oc2ccccc2)c1 | 4.5
O=C(c1ccco1)N(Cc1ccccc1)c1cccc([N+](=O)[O-])c1 | 18.7
O=C(Cc1cccs1)NNC(=S)NCc1ccco1 | 10.7
COC(=O)c1ccc2c(=O)n(CCCCCC(=O)NC(C)C)c(=O)[nH]c2c1 | 15.3
